Screening results from PubChem BioAssay.
WNV NS2B-NS3 inh: inhibitors of WNV NS2B-NS3 protease, primary screen, biochemical, fluorogenic substrate; fluorogenic substrate Ex360/Em465; active compounds read low; z-score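 (tested at a level between 10 and 100 µM)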; 65,000 tested, 0.18% active; AID 577, 2007;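 active = z-score at -3 or under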;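 note: score is relative to mean and spread of the compound wells of a plate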
Target sequence (P06935 1371-1501 limits assumed): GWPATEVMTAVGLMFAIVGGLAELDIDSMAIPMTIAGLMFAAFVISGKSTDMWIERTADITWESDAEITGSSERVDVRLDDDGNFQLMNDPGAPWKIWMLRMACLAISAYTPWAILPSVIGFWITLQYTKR
Target sequence (P06935 1502-1679 limits assumed): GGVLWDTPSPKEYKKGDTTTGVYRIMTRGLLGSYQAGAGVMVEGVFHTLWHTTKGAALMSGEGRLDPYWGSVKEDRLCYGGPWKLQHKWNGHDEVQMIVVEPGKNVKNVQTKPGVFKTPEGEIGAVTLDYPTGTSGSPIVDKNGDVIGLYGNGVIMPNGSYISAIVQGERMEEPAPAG
Hsc70 ATP site: Hsc70 inhibitors, probe displacement, primary screen, biochemical, fluorescence polarization (AID 568). 83,000 tested, under 10 active. displacement, % at 20 µM; hits with a dose series show IC50 in µM. Hsc70 fluorescence polarization, probe displacement; higher % means a stronger effect; strong numbers were not always called active;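 active = displacement above 50% without optical interference and an IC50 on retest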;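 note: ATPase domain with a fluorescein-tagged ATP probe; 0% = vehicle and 100% = excess ADP; read after one hour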
MT1-MMP promoter: inhibitors of MT1-MMP promoter transcription, cell-based, luciferase reporter, luminescence (AID 618). MT1-MMP promoter luciferase reporter cells, luminescence. calls from a first round at 10 µM; hits with a dose series show EC50 in µM. 87,000 tested, 0.62% active;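 active = over half of the reporter light lost at 10 µM or EC50 under 50 µM; inactive = the rest and hits that failed the dose series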;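 note: actives suppress MT1-MMP promoter-driven transcription so potencies describe inhibitors; HT1080 fibrosarcoma cells; overnight exposure; toxic or luciferase-blocking compounds were not removed from the actives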
* = called active by the depositor; i = inactive; . = not tested or not shown.

The line under a structure holds: WNV NS2B-NS3 inh | Hsc70 ATP site | MT1-MMP promoter
- COC(=O)c1sc2nc(-c3ccccc3)nc(N3CCN(C)CC3)c2c1C
→ 0.73 | -0.1% | i
- O=C(NCCCN1CCOCC1)c1ccc(Br)cc1
→ -1 | -0.4% | i
- O=C(CN1CCNCC1)Nc1ccc(Oc2ccccc2)cc1
→ . | -0.7% | i
- Oc1ccc2ccccc2c1/C=N/c1nccs1
→ . | 103.3% | i
- COc1ccc(S(=O)(=O)N2CCCN(CC(=O)Nc3ccc4c(c3)OCO4)CC2)cc1
→ 0.13 | -1.3% | i
- NC1=C(c2ccc(F)cc2)C(=O)CS1
→ 1.61 | 5.8% | i
- CCN(CC)S(=O)(=O)c1ccc(O)c(C(=O)OCC(=O)N(C)Cc2ccccc2)c1
→ 1.09 | 1.4% | i
- Cc1ccc(-c2ccc(=O)n(CCC(=O)NCCN3CCCCC3C)n2)cc1 (stereo unspecified)
→ 0.51 | -4.2% | i
- Cc1nc(NCCNC(=O)c2ccco2)c2c(C)c(C)sc2n1
→ 0.79 | -0.6% | i
- CC(=O)c1ccc(OCC(O)CN2CCC(C)CC2)cc1 (stereo unspecified)
→ 1.57 | 5.2% | i
- CCc1ccc(N2CC(C(=O)OCC(=O)NC3CCS(=O)(=O)C3)CC2=O)cc1 (stereo unspecified)
→ 0.81 | 4.7% | i
- CCOC(=O)c1cccc(NC(=O)CSc2nnc(C3CCCCC3)n2C)c1
→ -0.68 | 2.2% | i
- CCOC(=O)C1=C(C)NC(=O)NC1c1ccc(OC(=O)c2ccco2)cc1 (stereo unspecified)
→ . | -1.4% | i
- CCNc1nc2c(c(=O)[nH]c(=O)n2C)n1Cc1ccc(F)cc1
→ -0.1 | -2.0% | i
- Clc1ccccc1Cn1nnc2c(NCCN3CCOCC3)ncnc21
→ 1.98 | -4.7% | i
- O=C(Cc1ccc(Cl)cc1)Nc1ccccc1N1CCOCC1
→ . | 1.7% | i
- Nc1nc2n(n1)C(c1ccco1)CC(c1ccc(Cl)c(Cl)c1)N2 (stereo unspecified)
→ 1.46 | 4.1% | i
- Cc1ccc(-c2nnn(CC(=O)N3CCCc4ccccc43)n2)cc1
→ . | -0.5% | i
- Cn1nc(-c2ccc(Cl)cc2)c2cc(C(=O)NCCCN3CCCC3)sc21
→ -0.11 | 0.4% | i
- O=C(CN1C(=O)c2ccccc2C1=O)Nc1ccccc1C(=O)NC1CCCCC1
→ . | 8.0% | i
- c1cncc(-c2nc(Oc3ccc(-c4nnco4)cc3)c3c4c(sc3n2)CCCC4)c1
→ -1.25 | 0.5% | i
- O=C(NCCC1=CCCCC1)c1ccc(CN2CCOCC2)cc1
→ -0.16 | 3.8% | i
- CS(=O)(=O)N(CC(=O)N1CCCC1)c1ccc(OCc2ccccc2)cc1
→ 0.91 | -0.5% | i
- Cc1ccc(C)c(C(=O)CC2(O)C(=O)Nc3ccccc32)c1 (stereo unspecified)
→ 0.04 | -0.7% | i
- CCOc1ccc(Nc2nc(CC(=O)OC)cc(=O)[nH]2)cc1
→ -0.13 | 0.1% | i
- COc1ccc(-c2nnc(SCC(N)=O)n2N)cc1
→ 0.13 | -2.9% | i
- Brc1ccc(Oc2nsnc2N2CCOCC2)cc1
→ -0.87 | -0.9% | i
- Cc1ccc2c(c1)NC(=O)C(CC(=O)NCCCN1CCc3ccccc3C1)O2 (stereo unspecified)
→ 0.37 | -1.3% | i
- CCOc1ccc(NC(=O)C2CCCN(S(=O)(=O)c3c(C)n[nH]c3C)C2)cc1 (stereo unspecified)
→ 0.31 | 9.7% | i
- CCOC(=O)N1CCC(NC(=O)CNS(=O)(=O)c2ccc(Br)s2)CC1
→ -2.58 | -2.6% | i
- Cc1cccc(C(=O)N2CCN(Cc3ccc4c(c3)OCO4)CC2)c1
→ 1.01 | 5.9% | i
- C=CCOc1ccccc1CNCc1cccnc1
→ 0.49 | -3.7% | i
- CN(c1ccccc1)S(=O)(=O)c1cccc(C(=O)N2CCN(c3ccccn3)CC2)c1
→ -0.75 | -0.1% | i
- CCC(=O)Nc1ccc2c(c1)C(=O)N(C)C2=O
→ . | 0.3% | i
- CC(=O)c1ccc(N2CCN(CCC#N)CC2)c(F)c1
→ -1.61 | 2.0% | i
- CCOc1ccc(N=C2NC(=O)S/C2=C\c2ccc(O)cc2)cc1
→ . | -4.2% | i
- O=C1CC(N2CCN(C3CCc4ccccc4C3)CC2)C(=O)N1c1ccccc1 (stereo unspecified)
→ -0.38 | -8.9% | i
- CC(C)CCOc1ncnc2c1sc1nc3c(cc12)CSC(C)(C)C3
→ . | 4.9% | i
- O=C(NCCN1CCC(Cc2ccccc2)CC1)C1CCCN(S(=O)(=O)c2cnc[nH]2)C1 (stereo unspecified)
→ -0.75 | 0.5% | i
- Cc1ccc(C(=O)Nc2ccc(S(=O)(=O)N3CCN(C)CC3)cc2)cc1
→ . | 4.5% | i
- COCCN(CC(=O)NCc1ccc(F)cc1)C(=O)CCC(=O)Nc1nccs1
→ 0.1 | 1.0% | i
- COc1ccccc1NC(=O)N(Cc1ccco1)Cc1cc2c(C)ccc(C)c2[nH]c1=O
→ -0.29 | -2.7% | i
- CC1CCN(C(=O)Nc2ccc3nsnc3c2)CC1
→ . | 1.6% | i
- Cc1cc(C(C)(C)C)cc(C)c1COC(=O)C1CCC(=O)N1 (stereo unspecified)
→ -1.03 | -2.8% | i
- CC1=CCC(C(=O)O)C(C(=O)Nc2nc3ccc(S(C)(=O)=O)cc3s2)C1 (stereo unspecified)
→ . | -9.6% | i
- Nc1nc(-c2ccco2)nc(N2CCCCC2)n1
→ -0.85 | -6.8% | i
- O=S(=O)(c1ccc(S(=O)(=O)N2CCN(C/C=C/c3ccccc3)CC2)cc1)N1CCCC1
→ 1.28 | -6.2% | i
- CCC(C)Sc1nc2c(c(=O)[nH]c(=O)n2C)n1CCc1ccccc1 (stereo unspecified)
→ 1.37 | -4.7% | i
- COCCN(CC(=O)Nc1ccccc1C)S(=O)(=O)c1ccc(S(=O)(=O)N2CCCC2)cc1
→ 0.54 | -2.2% | i
- COc1ccc(-c2nnc3sc(C(C)N4C(=O)c5ccccc5C4=O)nn23)cc1 (stereo unspecified)
→ 1.28 | 4.8% | i
- CCC1(CC)Cc2ccccc2C(N)=C1C#N
→ -1.02 | 0.0% | i
- CC1CCCCC1NS(=O)(=O)c1ccc(S(=O)(=O)NCc2ccncc2)cc1 (stereo unspecified)
→ 0.00138 | -4.6% | i
- O=C(NCc1ccccc1)c1cnc2n(c1=O)CCS2
→ -0.39 | 3.1% | i
- CCOC(=O)C1CCCN(S(=O)(=O)c2cc(OCC(=O)NC3CCCCC3)c(C)cc2Cl)C1 (stereo unspecified)
→ . | 0.1% | i
- O=C(Nc1cnn(Cc2ccc(Cl)cc2Cl)c1)c1cc(-c2cccs2)on1
→ -0.79 | -1.4% | i
- COc1ccc(CN2CCN(S(=O)(=O)c3ccc(NC(C)=O)cc3)CC2)cc1OC
→ 0.44 | 2.0% | i
- Cc1csc(=Nc2c(C)n(C)n(-c3ccccc3)c2=O)n1Cc1ccccc1
→ 0.26 | -3.9% | i
- COc1ccc(C(=O)N2CCN(S(=O)(=O)c3cc(Cl)ccc3OC)CC2)cc1
→ -1.16 | -7.3% | i
- O=C(CN(C1CCCCC1)S(=O)(=O)c1ccc(F)cc1)NCc1ccncc1
→ . | -2.5% | i
- CCOC(=O)C1CCN(S(=O)(=O)c2ccc(NC(=O)OC)cc2)CC1
→ -0.68 | -9.1% | i

(list continues)
mol	WNV NS2B-NS3 inh	Hsc70 ATP site	MT1-MMP promoter
CCOC(=O)Nc1cccc(Nc2ccccc2)c1	-0.2	-4.8%	i
CS(=O)(=O)N1CCN(C2CCN(Cc3ccccc3)CC2)CC1	0.01	-1.6%	i
CC(CN1CCN(C)CC1)OC(=O)c1ccccc1Cl (stereo unspecified)	1.55	-3.3%	i
CCOC(=O)Cc1nnc(NC(=O)C(CC)Sc2nncn2C)s1 (stereo unspecified)	0.89	5.2%	i
O=C(O)[C@H](Cc1ccccc1)NC(=O)N1CCOCC1	-0.57	-9.6%	i
CCOC(=O)C1=C(C)NC(SCC(=O)O)=C(C#N)C1c1ccco1 (stereo unspecified)	.	1.7%	i
O=C1CCCN1c1ccc(S(=O)(=O)NCc2ccco2)cc1	0.61	0.2%	i
O=C(O)CCn1[nH]c(=O)c2ccccc2c1=O	.	4.4%	i
COc1cc(C)nc(N(Cc2ccccc2)S(=O)(=O)c2ccccc2)n1	-0.56	2.4%	i
O=C1CC(N(O)c2ccccc2)C(=O)N1Cc1ccccc1 (stereo unspecified)	-0.24	0.0%	i
CC(=O)Nc1cccc(Cn2cccn2)c1	0.24	5.9%	i
CCCn1c(SCc2ccc(Cl)cc2)nc2c1c(=O)[nH]c(=O)n2C	-0.71	1.6%	i
OC(CNCC1CCCO1)Cn1c2ccccc2c2ccccc21 (stereo unspecified)	-0.48	1.6%	i
COc1ccc(OC)c(C(O)c2nc3ccccc3n2C(C)C)c1 (stereo unspecified)	-0.76	0.3%	i
CCOc1cc2[nH]c(=O)n(CCCCC(=O)NCc3ccco3)c(=O)c2cc1OCC	-0.09	-0.8%	i
CC1CCCCN1C(=O)CSc1nc2ccccc2n1CC(=O)N1CCc2ccccc21 (stereo unspecified)	-1.23	4.2%	i
Cc1ccc(-c2noc(CCC(=O)NCCc3ccccc3Cl)n2)cc1	0.06	-2.1%	i
COc1ccc(-c2noc(CCC(=O)Nc3cccc(C)c3)n2)cc1	-1.02	1.2%	i
COC(=O)c1cc(NC(=O)c2ccccc2)c(=O)oc1C/C=N\OCc1ccc(Cl)cc1Cl	.	-18.5%	i
COc1ccccc1NC(=O)CN1C(=O)C2(OCCCO2)c2ccccc21	0.27	5.0%	i
CC1Cc2ccccc2N1C(=O)CCNS(=O)(=O)c1cccc2nsnc12 (stereo unspecified)	1.44	2.5%	i
CC1C/C(=N/Nc2ccc([N+](=O)[O-])cc2[N+](=O)[O-])CC(C)(C)C1 (stereo unspecified)	.	-2.3%	i
O=C(CN1CCCCC1)Nc1cc(Cl)ccc1Cl	0.52	4.8%	i
COc1ccc(CC(=O)NCc2ccco2)cc1OC	.	5.5%	i

Among those listed so far, 4 have a COOH group:
mol	WNV NS2B-NS3 inh	Hsc70 ATP site	MT1-MMP promoter
CC1=CCC(C(=O)O)C(C(=O)Nc2nc3ccc(S(C)(=O)=O)cc3s2)C1 (stereo unspecified)	.	-9.6%	i
O=C(O)[C@H](Cc1ccccc1)NC(=O)N1CCOCC1	-0.57	-9.6%	i
CCOC(=O)C1=C(C)NC(SCC(=O)O)=C(C#N)C1c1ccco1 (stereo unspecified)	.	1.7%	i
O=C(O)CCn1[nH]c(=O)c2ccccc2c1=O	.	4.4%	i

Further records:
mol	WNV NS2B-NS3 inh	Hsc70 ATP site	MT1-MMP promoter
CCC(C)NC(=O)C(Cc1ccccc1)n1cccc1 (stereo unspecified)	0.42	-4.2%	i
COc1ccc(NC(=O)c2ccc(Cc3ccc(C)cc3)o2)cc1	.	3.9%	i
COc1cccc(NC(=O)C2CCCN2C(=O)Nc2ccccc2F)c1 (stereo unspecified)	0.03	0.0%	i
CC(=O)C1C(c2cn(-c3ccccc3)nc2-c2cccs2)NC(=O)NC1(O)C(F)(F)F (stereo unspecified)	-0.83	7.5%	i
O=C(Nc1ccc(Cl)c(Cl)c1)OCc1cccnc1	-0.3	-4.6%	i
COc1cccc(C2CN(c3ccc(F)cc3F)N=C2c2cccs2)c1OC (stereo unspecified)	.	-1.2%	i
Cc1ccc(C(=O)NCC(=O)N2CCN(c3ncccn3)CC2)s1	.	1.4%	i
CCOCCCNC(=O)c1cc2c(=O)n3cccc(C)c3nc2n1C	1.72	5.4%	i

Reprinted at random: 3 records from the list
mol	WNV NS2B-NS3 inh	Hsc70 ATP site	MT1-MMP promoter
CC(=O)C1C(c2cn(-c3ccccc3)nc2-c2cccs2)NC(=O)NC1(O)C(F)(F)F (stereo unspecified)	-0.83	7.5%	i
COc1cccc(C2CN(c3ccc(F)cc3F)N=C2c2cccs2)c1OC (stereo unspecified)	.	-1.2%	i
COc1ccc(NC(=O)c2ccc(Cc3ccc(C)cc3)o2)cc1	.	3.9%	i

(cont.)
mol	WNV NS2B-NS3 inh	Hsc70 ATP site	MT1-MMP promoter
Cc1ccc2cc3cc(C(=O)NCCCN4CCc5ccccc5C4)oc3nc2c1	-0.52	3.2%	i
Cn1cccc1C(=O)c1ccc(Cl)cc1Cl	1.61	-0.6%	i
COC(=O)c1ccccc1NC(=O)c1ccc(COc2cccc3ccccc23)o1	.	-10.5%	i
CCOC(=O)C1CCN(S(=O)(=O)c2ccc(C(C)=O)cc2)CC1	.	3.1%	i
O=C(Nc1ccccc1C(=O)N1CCCC1)c1cccc(S(=O)(=O)N2CCCCC2)c1	-0.81	-4.6%	i
CCCn1nnc(NC(=O)COc2ccc(CC)cc2)n1	.	-1.3%	i
CC(C)CC(NC(=O)C1CCCCC1)C(=O)NCc1ccccn1 (stereo unspecified)	0.68	-4.2%	i
Cn1nc(C(=O)NCc2ccc(F)cc2)c2ccccc2c1=O	1.1	1.0%	i
CC(C)(C)OC(=O)NCCCC(CCCNC(=O)OC(C)(C)C)C(=O)O	-0.63	-1.5%	i
O=C(c1ccco1)N1CCN(Cc2nnnn2CCc2ccccc2)CC1	-0.76	4.2%	i
N#CC1=C(N)n2c(s/c(=C\c3ccco3)c2=O)=C(C#N)C1c1ccco1 (stereo unspecified)	0.39	-7.0%	i
COC(=O)C1=C(C)NC(=O)NC1c1ccc(OCC(=O)N2CCCCC2)cc1 (stereo unspecified)	0.37	3.7%	i
